Screening data from PubChem BioAssay.
T cruzi inh – T. cruzi replication inhibition; T. cruzi beta-gal in NIH3T3, luminescence, 90 h; inhibition, % (concentration not given with the values); 300,000 tested, 1.4% active;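 active = mean inhibition across valid replicates above about 55%, limit read from the data; inconclusive = mean below that limit but half or more replicates reach it; inactive = mean below it, under half of replicates reach it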;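 also: signal also drops with host cell toxicity which is not excluded here; 0% = plate median of DMSO wells and 100% = zero luminescence signal; higher percent means less beta-gal luminescence so fewer parasites; stock transfer was 50 nL into about 50 µL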
Calb FLC – affects C. albicans growth with fluconazole; 300,000 tested, 0.57% active; growth inhibition, % (concentration not given with the values); AID 1979; C. albicans CaCi-2 (fluconazole-resistant clinical isolate) + fluconazole, Alamar Blue growth, 48 h;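 active = most replicates above 75%; inconclusive = exactly half above 75%; inactive = most below 75%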;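 also: all wells also contain fluconazole at 8 µg/ml as a sub-toxic cotreatment; 0% = median of DMSO wells and 100% = median of geldanamycin control wells; wells of about 8 µL received 7.5 nL stock; the first replicate is given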
ALR H2O2 inh – inhibitors of human sulfhydryl oxidase ALR; P55789; purified ALR, DTT oxidation, H2O2 HRP-luminol luminescence; inhibition, % (concentration not given with the values); 290,000 tested, 3.8% active;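 active = mean and each replicate at 75% or more; inconclusive = only one of the two met; inactive = neither met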;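 also: stock transfer was 7.5 nL into about 7.5 µL; 0% = neutral wells and 100% = wells with inactivated enzyme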
LANA-H2A inh – blocks KSHV LANA binding to histone H2A/H2B; Q9QR71; cell-free LANA-H2A/H2B peptide, fluorescence polarization; inhibition, % (concentration not given with the values); 320,000 tested, 0.6% active; in the data active = inhibition mostly above about 10%, no sharp cut-off; inactive = mostly below about 6.7%;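 also: stock transfer was 7.5 nL into about 10 µL; 0% = median of vehicle wells and 100% = median of positive control wells; one replicate is shown; the record names a cut of 25% in any replicate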
Target sequence (Q9QR71 whole entry, looked up): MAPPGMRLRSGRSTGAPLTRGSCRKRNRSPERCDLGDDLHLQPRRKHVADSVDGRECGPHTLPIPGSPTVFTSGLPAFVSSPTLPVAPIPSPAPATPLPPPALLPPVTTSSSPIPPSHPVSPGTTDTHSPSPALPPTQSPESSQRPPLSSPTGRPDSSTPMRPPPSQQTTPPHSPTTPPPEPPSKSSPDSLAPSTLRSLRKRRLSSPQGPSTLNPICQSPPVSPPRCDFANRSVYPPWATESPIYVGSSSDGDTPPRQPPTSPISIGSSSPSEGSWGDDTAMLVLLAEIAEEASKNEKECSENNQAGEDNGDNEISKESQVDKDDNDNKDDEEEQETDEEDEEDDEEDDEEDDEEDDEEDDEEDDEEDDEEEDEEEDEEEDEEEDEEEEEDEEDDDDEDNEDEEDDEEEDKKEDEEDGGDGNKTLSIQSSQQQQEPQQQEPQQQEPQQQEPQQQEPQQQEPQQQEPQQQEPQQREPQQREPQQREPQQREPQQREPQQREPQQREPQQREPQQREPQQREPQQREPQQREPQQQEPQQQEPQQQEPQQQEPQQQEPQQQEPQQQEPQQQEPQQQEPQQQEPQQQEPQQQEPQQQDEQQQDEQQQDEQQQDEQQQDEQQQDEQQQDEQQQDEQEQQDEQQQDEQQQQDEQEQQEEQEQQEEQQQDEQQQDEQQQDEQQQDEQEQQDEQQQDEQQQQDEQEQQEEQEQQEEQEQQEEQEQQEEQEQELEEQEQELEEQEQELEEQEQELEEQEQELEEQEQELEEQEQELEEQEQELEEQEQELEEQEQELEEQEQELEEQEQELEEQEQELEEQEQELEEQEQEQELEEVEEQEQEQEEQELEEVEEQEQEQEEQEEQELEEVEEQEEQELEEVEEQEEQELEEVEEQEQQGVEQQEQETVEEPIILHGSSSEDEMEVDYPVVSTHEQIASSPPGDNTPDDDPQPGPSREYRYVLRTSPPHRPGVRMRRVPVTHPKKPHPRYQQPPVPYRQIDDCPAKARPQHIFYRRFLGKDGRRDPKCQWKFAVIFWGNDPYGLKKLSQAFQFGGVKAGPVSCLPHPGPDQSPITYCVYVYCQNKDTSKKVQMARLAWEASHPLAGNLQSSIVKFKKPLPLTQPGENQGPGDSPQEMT
Bfl-1 A1 inh – inhibitors of the anti-apoptotic protein A1, read as caspase activation. caspase activation, % (no concentration beside the values). AID 2462. 330,000 tested, 0.066% active. MEF A1-2A-BIM cells, Caspase-Glo 3/7 luminescence, 3 h; percent of clofoctol response, vehicle zero;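 active = over half of replicate activation scores above 10%, or exactly half above 10 with the replicate mean above 10; inconclusive = replicate mean below 10 yet half the replicates above 10; inactive = over half of replicates below 10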;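 also: wells of about 30 µL received 50 nL stock; many hits fall short of the cut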
Beta2AR agonist – human beta-2 adrenergic receptor agonism by FAP. P07550. Am2.2-beta2AR cells, FAP receptor internalization, flow cytometry; reference of the scale not given here. response, % (no concentration beside the values). 340,000 tested, 0.43% active;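 active = response above a set limit, near 3 SD of response in nonfluorescent compounds, cut at about 42% in these data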;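 also: stock transfer was 100 nL into about 11 µL; a reference agonist was the positive control; negative values mostly stem from fluorescent compounds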
rRNA inh HTS – selective bacterial rRNA inhibition in E. coli; E. coli WT GFP vs humanized-ribosome RFP mutants, fluorescence, 24 h; hits give low values; DMSO median 0, no signal -100; AID 720706; GFP signal change (wild-type ribosome), % (concentration not given with the values); 350,000 tested, 1.6% active;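 active = significant combined selectivity score with lowered wild-type GFP, culture density cut under 30%, mutant RFP and density less affected; inactive = any of these conditions unmet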; also: one replicate is shown; some compounds called inactive have numbers as strong as hits
Beta cell apopt – blocks beta cell apoptosis. 300,000 tested, 0.8% active. protection from apoptosis, % (no concentration beside the values). INS-1E cytokine-induced death, ATP luminescence, 48 h; percent of positive-control rescue, neutral wells zero;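 active = all replicates at 75% or more, or half of them and the mean; inconclusive = half reach 75% but not the mean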;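 also: 0% = cytokine-treated negative control wells and 100% = positive control rescue; higher means more ATP so stronger rescue from cytokine killing; wells of about 40 µL received 100 nL stock; the first replicate is given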
rRNA inh HTS OD600 – second read-out of rRNA inh HTS, no call of its own (marks repeat the call); OD600 change, %; measured here: OD600 growth;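 optical density of the mix in the first replicate; 0 = DMSO median and -100 = no signal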
rRNA inh HTS RFP – further read-out of rRNA inh HTS, marked with its call; RFP signal change, %; measured here: RFP humanized mutant strains;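 first replicate; 0 = DMSO median and -100 = no signal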
Numbers without * were called inactive; ? = inconclusive; · = no result given. Some of the compounds tested; rates above refer to the full screens.

SMILES	T cruzi inh	Calb FLC	ALR H2O2 inh	LANA-H2A inh	Bfl-1 A1 inh	Beta2AR agonist	rRNA inh HTS	rRNA inh HTS OD600	rRNA inh HTS RFP	Beta cell apopt
COc1ccc(OC)c(C2=NOC(C(=O)NCC3CCCO3)C2)c1 (stereo unspecified)	4.5	-3.3	·	-3.8	-0.5	5.1	14.7	13.3	-2.4	-2.0
N#Cc1ccc(C#Cc2ccc3oc4ccccc4c(=O)c3c2)cc1	·	·	-1.6	25.2*	-0.6	-7.4	20.5	14.0	1.5	2.6
CC(=O)Nc1ccc(C(=O)COC(=O)CCc2ccccc2)c(F)c1	·	·	4.0	-1.0	-0.1	-0.3	-1.4	0.0	5.0	2.2
COc1ccc(/C=N/NC(=O)c2ccc(C)nc2)cc1O	-3.7	2.8	97.4*	0.2	-0.3	1.3	4.3	2.8	3.8	-3.2
Cc1cc(NC(=O)CSc2nccn2-c2cccc(Cl)c2)no1	-2.4	-8.4	-13.7	-5.3	1.1	-1.5	-4.4	-6.9	1.7	-4.2
COc1ccccc1N(CC(=O)NCCSCc1ccco1)S(=O)(=O)c1ccccc1	-7.8	12.7	-4.0	0.8	-0.2	2.5	-23.2	-29.1	5.6	-9.9
CC1CN(C(=O)CSc2nc(-c3ccc(F)cc3)cs2)CC(C)O1 (stereo unspecified)	-17.5	-1.6	-6.3	2.4	-0.4	-3.7	·	·	·	-0.9
CCCc1cc(=O)oc2cc(OC(=O)CN3C(=O)NC4(CCCC4)C3=O)ccc12	-4.8	-6.1	17.8	-1.3	0.1	9.5	3.9	-10.6	-2.7	-9.2
Nc1ccc(-c2nnc(-c3ccc(N)cc3)o2)cc1	-16.5	7.9	·	-8.4	-4.7	10.2	-0.3	-0.2	-0.7	·
CC1(C)CC(=O)C(C=NCCN2CCNCC2)=C(O)C1	21.1	13.9	1.2	1.0	0.1	4.0	15.0	13.8	-1.9	-5.2
CCCn1nnnc1NCc1ccccc1OCc1cccs1	7.8	0.8	-3.5	-1.3	-0.2	-14.1	-20.1*	-11.2*	2.3*	-1.7
O=C(NCc1ccco1)c1ccc2c(=O)n(Cc3ccco3)c(SCC(=O)N3CCCC3)nc2c1	·	·	-0.8	1.3	-0.2	4.0	·	·	·	-2.1
CCn1c(Oc2ccccc2C)nc2c1c(=O)n(C)c(=O)n2C	7.5	-0.4	-1.6	5.6	0.5	-1.1	4.7	2.4	2.2	·
Cc1ccc(S(=O)(=O)NCC(=O)N2CCOCC2)cc1	1.1	1.8	1.0	-0.5	-0.2	-2.3	9.3	12.3	-1.8	1.1
CC1CCCN(C(=O)CSc2nc3ccccc3o2)C1 (stereo unspecified)	-10.4	24.9	-13.2	2.3	0.0	3.2	·	·	·	-3.4
O=C(Nc1ccc(S(=O)(=O)Nc2nccs2)cc1)C1CCCCC1	-3.9	-1.2	0.8	-2.0	0.1	1.7	·	·	·	-2.0
O=C(NCc1ccccn1)C1CC(=O)N(C2CCCC2)C1 (stereo unspecified)	-6.1	-0.8	·	·	·	2.7	13.9	13.7	1.0	·
CNc1nc(N2CCc3ccccc32)ncc1F	17.2	-8.7	71.9	-3.5	-5.6	5.0	·	·	·	9.2
CCC1(C)CC2(CCCN(CCC(O)(c3ccccc3)c3ccccc3)C2)CCO1 (stereo unspecified)	13.7	-11.0	0.1	3.3	0.0	-2.7	-23.1	-22.9	-1.8	0.0
Cc1ccc(C(=O)N/C(=C/c2ccc(-c3ccc([N+](=O)[O-])cc3)o2)C(=O)NCCCN(C)C)cc1	49.6	7.9	-6.9	-2.4	0.3	-91.4	·	·	·	·
CCOC(=O)Nc1nc(C)c(C(=O)c2ccc(Cl)cc2)s1	-11.9	11.4	1.5	1.2	0.1	6.4	·	·	·	-3.6
O=C1CCc2ccc(NS(=O)(=O)c3ccc(F)cc3)cc2N1	-0.5	9.4	3.2	0.9	-0.1	4.8	2.4	-4.6	1.2	4.5
CCCN(C(=O)Cn1ncc2c(=O)oc3ccccc3c21)c1cccc(C)c1	3.3	10.2	-10.1	0.1	0.5	-4.5	·	·	·	-1.1
Cc1ccc(-c2noc(CCC(=O)Nc3cc(C)ccn3)n2)cc1	-19.6	0.1	2.2	0.1	0.5	5.8	·	·	·	-28.9
COc1ccccc1N1CCN(C(=O)CN(C)S(=O)(=O)c2cc(C)ccc2OC)CC1	11.1	38.8	23.1	6.6	0.2	1.3	-13.8	-14.6	2.7	·
SMILES	T cruzi inh	Calb FLC	ALR H2O2 inh	LANA-H2A inh	Bfl-1 A1 inh	Beta2AR agonist	rRNA inh HTS	rRNA inh HTS OD600	rRNA inh HTS RFP	Beta cell apopt
CC(NC(=O)Cn1nc(-c2ccccc2)ccc1=O)c1ccccc1 (stereo unspecified)	-4.4	3.1	-4.4	-1.8	-0.3	4.2	-0.3	3.5	-7.5	7.9
COc1ccc(OCc2nc(C#N)c(NCCCn3ccnc3)o2)cc1	-9.4	-8.1	3.1	1.3	0.1	-1.4	7.6	9.8	-1.2	3.1
CCCNC(=O)c1cccc(COc2ccccc2OC)c1	4.3	18.4	·	2.3	0.0	22.9	-3.2	4.1	-1.1	4.2
S=C(NC1CCCC1)NC1CC1	-5.3	?	-7.8	4.3	0.1	-3.3	-0.2	-1.7	-1.8	-11.1
COc1ccc(-c2nc(CSCC(=O)NC3CC3)c(C)o2)cc1OC	-3.1	-1.5	99.0*	-1.8	0.2	-12.6	4.2	6.1	-2.0	3.2
COC(=O)c1ccccc1NC(=O)CSc1nnc(-c2cccnc2)n1N	-13.6	10.0	-1.5	0.5	-0.5	-3.2	7.5	1.4	-2.6	-0.4
CCc1ccc(NC(=O)c2c(C(=O)Nc3ccccc3)sc3nc(C)cc(=O)n23)cc1	-1.5	-0.6	·	5.1	-0.4	-11.1	13.1	13.2	5.7	11.7
Cc1cnc(C(=O)OCC(=O)c2csc(N3CCCCC3)n2)cn1	-4.9	4.4	·	-1.5	0.7	1.5	·	·	·	-4.9
CCn1c(Cc2ccccc2)nnc1SCC(=O)Nc1ccc2c(c1)OCO2	1.8	·	58.6	1.1	0.0	-7.4	·	·	·	5.2
Cc1cc(C)c(S(=O)(=O)N2CCCOC2CNC(=O)C(=O)NCc2ccccn2)c(C)c1 (stereo unspecified)	-3.7	?	0.0	-6.2	0.5	-4.1	4.3	9.8	-0.3	-6.0
O=C(NCc1n[nH]c(=S)n1-c1ccc(Cl)c(Cl)c1)c1ccco1	1.1	-2.6	85.4*	1.2	0.1	-4.4	5.8	3.7	-0.4	-6.2
COc1ccc(-n2cccc2C=O)cc1	-26.7	0.2	-3.5	-2.2	1.0	1.2	·	·	·	-6.0
O=C(COC(=O)[C@@H]1CCCN1C(=O)c1cccs1)Nc1ccc(F)cc1[N+](=O)[O-]	-10.7	26.1	-2.2	1.9	-1.6	-3.4	22.9	8.0	1.7	0.2
CCn1c(=S)sc2c(=O)[nH]c(C)nc21	-6.7	6.5	-7.6	-3.0	-0.5	1.5	·	·	·	-3.0
Fc1cccc(Cl)c1CSc1nnnn1-c1ccc2c(c1)OCO2	-8.9	-14.7	-0.4	4.7	0.0	-3.2	-31.1	-51.1	-16.6	-0.7
CCCCn1c(SCC(=O)NCc2ccco2)nnc1-c1ccco1	-5.4	1.3	18.0	3.4	0.6	-0.3	·	·	·	-1.9
Cc1ccc(NC(=O)CN(c2ccccc2F)S(C)(=O)=O)cc1	-7.6	-16.5	-1.8	1.6	0.9	-4.1	10.5	5.4	8.2	-8.9
CCc1ccccc1NC(=O)CNC(=O)CNC(=O)c1cccs1	·	·	1.1	-1.5	0.7	0.2	15.6	15.3	1.4	-8.0
CSCCC(NC=C1C(=O)OC(C)(C)OC1=O)C(=O)O (stereo unspecified)	-2.2	-0.4	0.6	-4.0	0.2	12.5	·	·	·	-6.4
O=C(CCN1C(=O)c2ccccc2C1=O)Nc1ccccn1	-3.7	-12.3	-2.6	6.8	1.1	-2.8	·	·	·	-7.3
COc1ccc(N2CCN(C(=O)c3ccncc3)CC2)cc1	-11.8	0.1	50.3	-2.9	0.0	0.5	·	·	·	-3.0
CCc1ccc(-c2cc(C)no2)cc1S(=O)(=O)NCCc1ccc(OC)c(OC)c1	1.7	12.1	-2.2	-3.6	1.6	-13.3	-9.5	-5.3	5.1	5.5
O=C(CCNC(=O)c1ccc(Br)cc1)NNC(=O)C1COc2ccccc2O1 (stereo unspecified)	2.7	1.9	-2.2	-0.4	0.5	-3.1	2.4	7.2	-2.6	-0.6
Nc1cc(Cl)ccc1C(=O)OCC(=O)NC1CCCCC1	-7.2	2.4	·	·	0.5	-6.5	13.2	5.2	-7.6	0.1
N#Cc1ccc(C(=O)Nc2ccc(N3CCN(C(=O)c4ccco4)CC3)cc2)c(F)c1	3.5	-2.0	6.5	-1.0	-0.1	1.3	·	·	·	-3.5
SMILES	T cruzi inh	Calb FLC	ALR H2O2 inh	LANA-H2A inh	Bfl-1 A1 inh	Beta2AR agonist	rRNA inh HTS	rRNA inh HTS OD600	rRNA inh HTS RFP	Beta cell apopt
Cc1occc1C(=O)N(C)Cc1nc(-c2ccc(Cl)cc2)no1	-1.0	1.6	-17.4	-2.4	-0.8	-6.3	3.0	0.7	4.0	3.2
OCC[C@H]1C[C@H](O)[C@@H](O)[C@@]2(CCCO2)O1	-14.6	-1.2	-10.4	0.8	0.4	-3.2	7.7	12.8	1.6	3.3
O=C(COC(=O)Cc1ccccc1[N+](=O)[O-])NCC1CCCCC1	1.6	-12.6	-0.3	-2.8	0.1	4.8	7.6	8.4	-1.5	-12.9
O=C(COC(=O)c1ccc(Br)o1)NCCc1ccccc1	-11.6	4.3	-8.7	3.4	1.0	2.0	-5.9	1.1	-1.6	-4.0
CCN1CCN(c2nc3c(C)cccn3c(=O)c2C=C(C#N)C#N)CC1	-24.1	5.2	-1.5	3.3	0.3	9.2	9.1	2.6	4.3	-3.6
C=CCn1c(SCC(=O)Nc2ccccc2OC)nc2c([nH]c3ccccc32)c1=O	4.5	·	-3.0	-0.4	0.2	-2.7	0.5	3.7	-3.0	6.9
COc1ccc(CN2C(=NC(=O)CCC3CCCC3)SC3CS(=O)(=O)CC32)cc1 (stereo unspecified)	-0.2	10.7	0.7	6.4	0.4	3.9	3.5	-1.1	-5.5	-5.6
CCOC(=O)C1CCN(C(=O)CN2C(=O)C(CC)Oc3ccccc32)CC1 (stereo unspecified)	-6.1	-10.5	-2.0	6.9	-0.4	0.1	9.6	7.7	0.3	-3.1
O=C1NC(=Nc2ccc(Cl)cc2)/C(=C/c2ccco2)S1	-22.0	-23.6	86.8*	7.0	1.0	10.9	2.9	5.7	1.3	20.1
Cc1sc2ncn(CC(=O)NCCCN3CCC(C)CC3)c(=O)c2c1S(=O)(=O)N1CCC(C)CC1	-8.7	-1.7	10.9	0.6	0.1	-3.6	0.6	9.2	1.6	-1.9
C=CCSc1nnc2nc3[nH]c4c(C)cccc4c3nn12	-3.8	11.4	4.3	-1.3	0.4	1.2	·	·	·	-4.1
Cn1c(CN2CCOCC2)nnc1SCC(=O)Nc1nccs1	-3.9	9.0	-3.3	3.9	-0.4	-4.5	·	·	·	-5.1
